MLL AF4-AF9 inh: blocks AF4 peptide binding to human AF9; AID 651704; P42568; AlphaScreen, biotin-AF4 peptide binding to FLAG-AF9; hit rate 0.47% among 350,000; inhibition, % at 10 µM;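 active = every replicate reaching a set inhibition limit, whatever the replicate mean, cut at about 25% in these data; inconclusive = mean inhibition reaches that limit but some replicates miss it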;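 also: 0% = plate neutral control median and 100% = total signal loss; the record names both 10 and 1 µM as test concentration; the first replicate is given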
Ecoli growth: E. coli growth inhibition; OD600 absorbance (no concentration beside the values); hit rate 0.21% among 330,000; AID 1053175; Escherichia coli growth, OD600, 23 h; hits give low values;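 active = OD600 absorbance below the run mean of sample wells minus 3.6 SD, in any replicate, cut at about 0.56 in these data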;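 also: stock transfer was 300 nL into about 60 µL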
Vif TR-FRET: HIV-1 Vif–A3G interaction blockers – biochemical, TR-FRET, GST-Vif 1-94, biotin-A3G peptide, dose response retest, primary screen (AID 1117319); TR-FRET GST-Vif / biotin-A3G peptide binding; higher % means a stronger effect; test concentration not given here; strong numbers were not always called active; inhibition, %; hits with a dose series show IC50 in µM; hit rate 0.57% among 260,000;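 active = above the screen mean plus three standard deviations and confirmed in dose response; inconclusive = results disagree or hit not tested in dose response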;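 also: Vif residues 1-94 fused to GST binding biotinylated APOBEC3G peptide 110-148; 0% = full assay without inhibitor and 100% = GST in place of GST-Vif; retest series ran down from 100 µM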
HNF4A DNA FP: change in binding of human HNF4 alpha to DNA; HNF4a-FITC DNA binding, fluorescence polarization, 1 h; activity change, % at 10 µM; hit rate 0.3% among 360,000; AID 1224865; in the data active = activity change above about 30%, passing the limit was not always enough;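 also: controls were the assay level and a saturating level of protein; the project sought stronger binding though the title names inhibitors; some compounds called inactive have numbers as strong as hits; positive values seem to mean higher polarization but the record does not say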
Target sequence (P41235 whole entry, looked up): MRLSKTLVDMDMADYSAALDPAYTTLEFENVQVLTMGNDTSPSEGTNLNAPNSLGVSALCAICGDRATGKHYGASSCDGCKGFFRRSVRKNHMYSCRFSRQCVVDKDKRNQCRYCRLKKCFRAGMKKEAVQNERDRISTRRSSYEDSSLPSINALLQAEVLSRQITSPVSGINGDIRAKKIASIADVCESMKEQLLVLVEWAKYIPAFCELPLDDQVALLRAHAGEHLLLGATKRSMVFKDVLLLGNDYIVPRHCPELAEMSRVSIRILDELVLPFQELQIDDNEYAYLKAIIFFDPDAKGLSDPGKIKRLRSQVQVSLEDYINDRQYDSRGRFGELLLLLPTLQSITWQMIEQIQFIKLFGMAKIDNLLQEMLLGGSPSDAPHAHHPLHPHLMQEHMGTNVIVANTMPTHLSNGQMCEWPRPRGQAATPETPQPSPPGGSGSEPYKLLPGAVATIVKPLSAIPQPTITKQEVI
Ecoli rRNA inh: inhibits bacterial ribosomal RNA function over humanized ribosomes; E. coli WT GFP vs humanized-ribosome RFP mutants, fluorescence, 24 h; hits give low values; DMSO median 0, no signal -100; GFP signal change (wild-type ribosome), % (no concentration beside the values); hit rate 1.6% among 350,000; AID 720706;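 active = significant combined selectivity score with lowered wild-type GFP, culture density cut under 30%, mutant RFP and density less affected; inactive = any of these conditions unmet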; also: one replicate is shown; some compounds called inactive have numbers as strong as hits
ALR H2O2 inh: inhibitors of human sulfhydryl oxidase ALR. purified ALR, DTT oxidation, H2O2 HRP-luminol luminescence. inhibition, % (concentration not given with the values). hit rate 3.8% among 290,000. AID 485317;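 active = mean and each replicate at 75% or more; inconclusive = only one of the two met; inactive = neither met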;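 also: stock transfer was 7.5 nL into about 7.5 µL; 0% = neutral wells and 100% = wells with inactivated enzyme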
Target sequence (P55789 whole entry, looked up): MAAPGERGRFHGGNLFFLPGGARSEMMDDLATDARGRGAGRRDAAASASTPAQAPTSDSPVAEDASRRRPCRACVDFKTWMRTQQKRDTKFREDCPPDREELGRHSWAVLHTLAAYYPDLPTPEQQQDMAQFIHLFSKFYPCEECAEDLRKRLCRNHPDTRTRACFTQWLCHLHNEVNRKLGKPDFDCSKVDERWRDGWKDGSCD
FGF22 binding: shifts melting point of recombinant human FGF22 | calls only at 9.99 µM | recombinant FGF22 thermal shift, SYPRO orange fluorescence; percent of sucrose octasulfate shift, DMSO zero | hit rate 1.5% among 340,000 | Q9HCT0;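 active = melting point raised past a set limit in the mean and every replicate; inconclusive = no clear call; three in four hits are not shown here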
Target sequence (Q9HCT0 whole entry, looked up): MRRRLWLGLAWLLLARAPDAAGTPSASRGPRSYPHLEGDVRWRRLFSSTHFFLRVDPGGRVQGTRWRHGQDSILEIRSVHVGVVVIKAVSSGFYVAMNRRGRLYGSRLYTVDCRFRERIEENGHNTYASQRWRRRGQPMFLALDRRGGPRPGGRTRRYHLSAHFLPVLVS
Ecoli rRNA inh OD600: also measured in Ecoli rRNA inh; calls as there; OD600 change, %; measured here: OD600 growth;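 optical density of the mix in the first replicate; 0 = DMSO median and -100 = no signal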
Ecoli rRNA inh RFP: further read-out of Ecoli rRNA inh, marked with its call; RFP signal change, %; measured here: RFP humanized mutant strains;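 first replicate; 0 = DMSO median and -100 = no signal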
* hit, by the source's call; i = inactive; ? = inconclusive; . = not tested or not shown; & = joins results of further samples. Some of the compounds tested; the hit share may differ from the screen's.

SMILES | MLL AF4-AF9 inh | Ecoli growth | Vif TR-FRET | HNF4A DNA FP | Ecoli rRNA inh | Ecoli rRNA inh OD600 | Ecoli rRNA inh RFP | ALR H2O2 inh | FGF22 binding
CSc1ccc(CCNC(=O)CCc2nnc3ccc(NCCCN4CCCC4=O)nn23)cc1 | 1.7 | 0.72 | 9.5% | -3.5 | 1.6 | 2.9 | 1.6 | -6.2 | i
Cc1ccc(C(=O)CCC(=O)N(C)CC(=O)Nc2ccccc2Br)cc1 | -0.4 | 0.722 | . | -3.4 | -6.7 | -3.5 | -1.9 | -2.3 | i
Cc1cc2oc(C(=O)N(Cc3ccc(N(C)C)cc3)CC3CCCO3)c(C)c2cc1C (stereo not drawn) | ? | 0.725 | . | -1.2 | -1.0 | -7.2 | 0.3 | -7.3 | i
COc1ccc(C2NC(=O)c3ccccc3O2)c(OC)c1OC (stereo not drawn) | -2.1 | 0.68 | 6.3% | -2.1 | . | . | . | 5.6 | .
CC1(C)CC(=O)C(CC(=O)Nc2ccc(S(N)(=O)=O)cc2)=C(O)C1 | . | 0.713 | 24.3% | 2.0 | 7.7 | 10.4 | -2.4 | -7.6 | .
O=C(O)COc1c(-c2ccccc2)oc2ccccc2c1=O | . | 0.73 | 1.7% | 6.9 | . | . | . | -6.8 | .
COCCN(C(=S)Nc1c(C)cccc1C)C(C)c1cccs1 (stereo not drawn) | 5.8 | 0.627 | -1.4% | 4.4 | -14.1 | -14.4 | -11.7 | -3.6 | i
COc1ccc(C2=C(Nc3ccc(F)cc3)c3ccccc3C2=O)cc1 | . | 0.785 | 2.6% | -0.6 | . | . | . | . | .
O=C(NC(Cc1c[nH]c2ccccc12)C(=O)O)/C(=C/c1ccc(F)cc1)NC(=O)c1ccccc1 (stereo not drawn) | -10.8 | . | . | -1.3 | 10.2 | 1.5 | 0.0 | -4.6 | i
C[C@H](CO)N1C[C@H](C)[C@H](CN(C)C(=O)Cc2ccncc2)Oc2cc(C#CC3CCCCC3)ccc2S1(=O)=O | 3.8 | . | . | . | -2.8 | -19.4 | 31.8 | . | i
Cc1oc(-c2ccccc2F)nc1CS(=O)(=O)CC(=O)NCCCN(C)C1CCCCC1 | . | 0.724 | -0.1%&-2.1% | -1.3 | -0.5 | 20.7 | -3.3 | -18.4 | .
CN(C)c1cccc(C(=O)OCC(=O)Nc2ccccc2-c2ccccc2)c1 | . | 0.679 | 17.6% | 1.0 | . | . | . | . | .
O=C(COc1ccccc1[N+](=O)[O-])Nc1ccc2c(c1)OCO2 | -1.1 | 0.729 | -4.8% | 2.4 | 9.8 | 7.6 | 0.1 | . | i
O=C(N/N=C/c1cccnc1)c1ccc(NC(=O)C(c2ccccc2)c2ccccc2)cc1 | -22.4 | . | -0.2% | 3.1 | 13.8 | 9.1 | 3.7 | -6.3 | i
CCC1Oc2ccc(C)cc2N(CC(=O)N(Cc2ccc(C)o2)C2CCCC2)C1=O (stereo not drawn) | . | 0.693 | . | -3.2 | . | . | . | 9.1 | .
CCOc1cc(C2/C(=C(/O)c3ccc(S(=O)(=O)N4CCCCC4)cc3)C(=O)C(=O)N2CCOC)ccc1O (stereo not drawn) | -0.4 | 0.701 | . | -2.8 | 4.7 | 11.1 | 1.2 | 19.1 | .
O=C(CSc1ncn[nH]1)N/N=C/c1ccc(C(F)(F)F)cc1 | 1.1 | . | . | -2.4 | -5.8 | -0.1 | 0.4 | -3.1 | i
CCN1C(=O)CC(C(=O)NCCc2ccc(S(N)(=O)=O)cc2)SC1=Nc1ccc(OC)cc1 (stereo not drawn) | -0.3 | 0.664 | -2.4% | 2.4 | -3.8 | -6.4 | -3.9 | -1.4 | i
COc1ccc(S(=O)(=O)NC(=O)C2(C)CCN2C(=O)c2ccc(C(F)(F)F)nc2C)cc1 (stereo not drawn) | -4.3 | . | . | 4.6 | 6.2 | 20.1 | -2.3 | . | i
COc1cc(C(=O)Nc2ccc(S(=O)(=O)N3CCCCC3C)cc2)cc(OC)c1OC (stereo not drawn) | . | 0.71 | -1.0% | -1.3 | . | . | . | -7.7 | .

Random excerpt: five compounds from above
SMILES | MLL AF4-AF9 inh | Ecoli growth | Vif TR-FRET | HNF4A DNA FP | Ecoli rRNA inh | Ecoli rRNA inh OD600 | Ecoli rRNA inh RFP | ALR H2O2 inh | FGF22 binding
O=C(NC(Cc1c[nH]c2ccccc12)C(=O)O)/C(=C/c1ccc(F)cc1)NC(=O)c1ccccc1 (stereo not drawn) | -10.8 | . | . | -1.3 | 10.2 | 1.5 | 0.0 | -4.6 | i
Cc1oc(-c2ccccc2F)nc1CS(=O)(=O)CC(=O)NCCCN(C)C1CCCCC1 | . | 0.724 | -0.1%&-2.1% | -1.3 | -0.5 | 20.7 | -3.3 | -18.4 | .
COCCN(C(=S)Nc1c(C)cccc1C)C(C)c1cccs1 (stereo not drawn) | 5.8 | 0.627 | -1.4% | 4.4 | -14.1 | -14.4 | -11.7 | -3.6 | i
CCC1Oc2ccc(C)cc2N(CC(=O)N(Cc2ccc(C)o2)C2CCCC2)C1=O (stereo not drawn) | . | 0.693 | . | -3.2 | . | . | . | 9.1 | .
O=C(O)COc1c(-c2ccccc2)oc2ccccc2c1=O | . | 0.73 | 1.7% | 6.9 | . | . | . | -6.8 | .

Continuation:
SMILES | MLL AF4-AF9 inh | Ecoli growth | Vif TR-FRET | HNF4A DNA FP | Ecoli rRNA inh | Ecoli rRNA inh OD600 | Ecoli rRNA inh RFP | ALR H2O2 inh | FGF22 binding
COC(=O)Cn1c(=O)c(C)nc2ccccc21 | -2.9 | 0.7 | 0.9% | -1.2 | 4.3 | 11.1 | -1.1 | -8.2 | i
Cc1ccc(S(=O)(=O)N2CCOCC2)cc1NC(=O)C1=NN(c2ccccc2)C(=O)CC1 | 3.6 | 0.705 | -6.9% | -5.5 | 1.8 | 6.6 | -0.7 | -8.1 | i
CSc1ccccc1C(=O)Nc1ccccc1C | 0.7 | 0.721 | -1.0% | -1.8 | 3.6 | 0.9 | 0.9 | . | i
COc1cc2c(cc1OC)CN(C(=O)NS(=O)(=O)c1ccc(C)cc1)CC2 | . | 0.712 | -1.5% | -3.8 | . | . | . | -1.9 | .
CO[C@@H]1CN(C)C(=O)c2cc(NC(=O)NC(C)C)ccc2OC[C@@H](C)N(C(=O)C2CCC2)C[C@H]1C | 0.8 | . | . | . | -2.7 | -7.1 | -0.6 | . | i
COc1ccc(C2CC(c3ccccc3)=NN2C(=O)COC(=O)c2ccc(S(C)(=O)=O)cc2)cc1 (stereo not drawn) | -3.0 | 0.707 | -99.3% | 1.0 | 14.2 | 18.1 | -1.6 | -4.1 | i
COc1ccc(N=C2SCC(c3ccc(C)cc3)=NN2CCO)cc1 | 5.7 | 0.634 | -8.3% | 7.0 | -10.4 | -20.4 | 3.8 | 19.4 | i
CN1C(=O)C(CC(=O)NCC2CCCCC2)SC1=Nc1ccccc1 (stereo not drawn) | -0.8 | 0.674 | 4.7% | -0.2 | 5.3 | 3.6 | -4.3 | -0.3 | i
Cc1cc2nc(-c3ccc(F)cc3)c(CC(C)(C)C)n2c(C)c1Br | 1.8 | . | . | 0.9 | 11.1 | 15.7 | -1.8 | . | i
O=C(NCc1ccco1)C1CCN(S(=O)(=O)c2ccccc2C(F)(F)F)CC1 | 1.1 | 0.69 | 0.3% | 3.5 | 1.5 | 17.9 | -1.7 | -27.4 | i
CSc1ccc(/C=N/Nc2nc(C)cc(C)n2)cc1 | 2.9 | . | -2.4% | -2.4 | 4.6 | 5.4 | 0.6 | -1.8 | .
CCOC(=O)C1=C(O)CSC1=Nc1cccc(Cl)c1 | . | 0.771 | -1.8% | 4.5 | . | . | . | 1.6 | .
C[C@H]1CN([C@@H](C)CO)C(=O)Cc2cc(NS(=O)(=O)c3ccc(F)cc3)ccc2O[C@@H]1CN(C)Cc1ccc(Oc2ccccc2)cc1 | 1.6 | . | . | . | 0.3 | -1.0 | 1.8 | . | i
OC(c1cccs1)(c1cccs1)C1C[N+]2(CF)CCC1CC2 (stereo not drawn) | -2.5 | 0.639 | 22.1% | -2.0 | 36.0 | 1.1 | 3.6 | -0.5 | i
COc1ccc(N2C(=O)C3C4C=CC(C5CC45)C3C2=O)c([N+](=O)[O-])c1 (stereo not drawn) | . | 0.684 | -3.1% | -3.4 | . | . | . | -11.8 | .
COc1ccc(-c2cnc3c(c2)C(=O)N([C@@H](C)CO)C[C@H](C)[C@@H](CN(C)C(=O)C2CCOCC2)O3)cc1 | -2.9 | . | . | . | -4.4 | -0.4 | -4.7 | . | i
CCN1CCN(c2ccc(S(=O)(=O)N3CCCCC3)cc2NC(=O)c2cccc(C)c2[N+](=O)[O-])CC1 | -2.5 | 0.625 | -5.8% | 0.8 | 4.9 | 3.7 | 3.8 | . | i
C[C@H](CO)N1C[C@H](C)[C@@H](CN(C)S(=O)(=O)c2ccc(F)cc2)Oc2ccc(NC(=O)Nc3ccc(C(F)(F)F)cc3)cc2C1=O | -3.4&-2.2 | . | . | -1.2 | 0.2&6.9 | 7.8&4.2 | -2.4&-6.9 | 2.6 | i
CCNC(=S)NNC(=O)c1csc2c1CCC(C)C2 (stereo not drawn) | . | 0.746 | 6.2% | 1.8 | . | . | . | 26.1 | .
NS(=O)(=O)c1cccc(NC(=O)CC(NC(=O)c2ccccc2Cl)c2ccccc2)c1 (stereo not drawn) | 3.2 | 0.698 | -9.7% | -1.3 | 0.2 | 13.9 | -1.9 | . | i
CN1c2ccc(-c3ccc(C#N)cc3)cc2[C@H]2[C@H](CCN2S(=O)(=O)c2ccc(F)cc2)[C@H]1CO | -3.9 | . | . | . | -0.4 | -3.6 | 2.0 | . | i
CCc1c(-c2ccccc2)nc(N)c(C#N)c1-c1cccs1 | . | 0.645 | -13.6% | -1.1 | . | . | . | -13.2 | .
COc1cc(C(=O)OCC(=O)c2c(N)n(C)c(=O)n(C)c2=O)ccc1OCCC(C)C | -6.4 | 0.678 | 2.5% | -0.8 | 2.8 | 11.1 | 0.6 | -3.9 | i
CC(=O)N1CCN(c2ccc([N+](=O)[O-])c(NCc3cccnc3)c2)CC1 | 0.0 | 0.703 | 0.3% | 0.0 | -8.2 | -0.7 | 3.3 | -43.9 | .
O=C(C[C@@H]1CC[C@H]2[C@@H](COC[C@H](O)CN2CCc2ccccc2)O1)NCCCN1CCOCC1 | 1.1 | . | . | . | i | . | . | . | i
Cc1ccccc1OCC(O)CN1CCN(CCN2C(=O)c3cccc4cccc(c34)C2=O)CC1 (stereo not drawn) | 10.8 | 0.672 | . | -1.5 | -14.7 | -20.0 | 14.2 | -5.4 | i
Cc1ccc(NC(=O)CSc2nc(=O)n(CCCN3CCOCC3)c3c2CCCC3)c(C)c1 | -4.5 | 0.701 | 11.4% | 1.0 | 6.5 | 10.9 | 1.3 | 2.0 | i
COCc1cccc(-c2csc(C(O)c3ccc(F)c(F)c3)n2)c1 (stereo not drawn) | -2.7 | . | . | -0.8 | -50.5 | -68.8 | -18.9 | . | i
COC(=O)c1ccccc1NC(=O)CN1CCC(n2nnc3cc(F)ccc32)CC1 | . | 0.727 | -6.5% | 4.8 | . | . | . | . | .
CCCCNCCOCCOc1ccc(C)cc1[N+](=O)[O-] | . | 0.611 | 3.0% | -2.4 | . | . | . | 13.7 | .
O=C1CCCN1CCC1CCN(C2CC(=O)N(c3ccc(F)cc3)C2=O)CC1 (stereo not drawn) | . | 0.719 | 1.5% | -2.1 | . | . | . | 22.0 | .
COc1ccc(C2(C(=O)Nc3ccc(OC)cc3OC)CCCC2)cc1 | -5.7 | 0.659 | -0.7% | 2.5 | -23.1 | -21.8 | -9.5 | 14.5 | i

Assay outcomes as filed in PubChem.
